Bioassay records from PubChem.
DUX4 txn inh: DUX4-mediated transcription inhibition | 293T-iDUX4 ZSCAN4-Gaussia luciferase reporter, 24 h; hits give low values | activity change, negative = inhibition, % (test concentration not listed) | hit rate 0.8% among 37,000 | AID 1224904;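 active means -10% or lower and over 25 points stronger than a control reporter; inconclusive means -10% or lower with a smaller gap; inactive means above -10%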;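 further: 0% = median of neutral control wells and -100% = median of positive control wells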
DUX4 txn inh difference: further read-out of DUX4 txn inh, marked with its call; Gaussia minus Italica difference, %; measured here: selective DUX4 reporter inhibition;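 worked out from the two reporters; negative = selective loss of the DUX4 reporter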
DUX4 txn inh control: second read-out of DUX4 txn inh, no call of its own (marks repeat the call); activity change, negative = inhibition, %; measured here: Italica tet-on control reporter;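 0 = neutral control and -100 = positive control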
* marks the source's active call; other numbers are inactive results; ? = inconclusive; / = not tested or not shown; & = joins results of further samples. This is a subset. The share of hits here may be higher or lower than overall.

SMILES	DUX4 txn inh	DUX4 txn inh difference	DUX4 txn inh control
C[C@H](CO)N1C[C@H](C)[C@H](CN(C)C(=O)Cc2ccccc2)Oc2cc(C#CC3CCCC3)ccc2S1(=O)=O	-3	-5	2.5
C[C@@H]1CN([C@H](C)CO)C(=O)c2c(c3ccccc3n2C)-c2ccccc2CO[C@@H]1CN(C)S(=O)(=O)c1ccccc1F	?	/	/
Cc1noc(C)c1NC(=O)N1C[C@H](O)COC[C@H]2O[C@H](CC(=O)NCC3CC3)CC[C@@H]21	6	-1	6.8
CC(=O)N(C)C[C@H]1[C@@H](c2ccc(-c3ccc(C#N)cc3)cc2)[C@@H](CO)N1C(C)=O	-2	-2	0.1
CCCC(=O)Nc1ccc2c(c1)C(=O)N(C)C[C@@H](OC)[C@@H](C)CN(C(=O)CC1CC1)[C@@H](C)CO2	2	0	2.4
CN(C)C(=O)c1ccc(-c2ccc([C@@H]3[C@@H](C#N)N(C(=O)C4CCCCC4)[C@H]3CO)cc2)cc1	-2	2	-3.5
C[C@@H]1CN([C@H](C)CO)C(=O)c2c(c3ccccc3n2C)-c2ccccc2CO[C@@H]1CN(C)C(=O)Nc1cccc(F)c1	-3	-3	0.5
O=C(C[C@@H]1CC[C@H]2[C@@H](COC[C@H](O)CN2CC2CCOCC2)O1)NCc1ccc(Cl)cc1	3	-1	3.7
CCC(=O)N1[C@@H]2Cn3c(ccc(C4=CCCC4)c3=O)[C@H]1[C@@H](C(=O)N[C@H](C)c1ccccc1)[C@@H]2CO	3	4	-0.8
COc1ccc(NC(=O)N(C)C[C@H]2Oc3ccc(NC(=O)CCN4CCOCC4)cc3C(=O)N([C@@H](C)CO)C[C@H]2C)cc1	-3	-3	-0.3
COc1cccc(CNC(=O)[C@H]2[C@H](CO)[C@H]3Cn4c(cccc4=O)[C@@H]2N3C(=O)C2CCCC2)c1	4	2	2.0
CN1C(=O)c2cc(NC(=O)c3ccccc3Cl)ccc2OC[C@H]2O[C@H](CC(=O)NCC(F)(F)F)CC[C@@H]21	1	0	1.1

Four compounds picked at random from those above, as already listed:
SMILES	DUX4 txn inh	DUX4 txn inh difference	DUX4 txn inh control
O=C(C[C@@H]1CC[C@H]2[C@@H](COC[C@H](O)CN2CC2CCOCC2)O1)NCc1ccc(Cl)cc1	3	-1	3.7
Cc1noc(C)c1NC(=O)N1C[C@H](O)COC[C@H]2O[C@H](CC(=O)NCC3CC3)CC[C@@H]21	6	-1	6.8
CCCC(=O)Nc1ccc2c(c1)C(=O)N(C)C[C@@H](OC)[C@@H](C)CN(C(=O)CC1CC1)[C@@H](C)CO2	2	0	2.4
CCC(=O)N1[C@@H]2Cn3c(ccc(C4=CCCC4)c3=O)[C@H]1[C@@H](C(=O)N[C@H](C)c1ccccc1)[C@@H]2CO	3	4	-0.8

The listing continues.
SMILES	DUX4 txn inh	DUX4 txn inh difference	DUX4 txn inh control
CNC[C@H]1OCCCC[C@H](C)Oc2ccc(NS(=O)(=O)c3c(C)noc3C)cc2C(=O)N([C@H](C)CO)C[C@H]1C	2	0	2.2
CCC(=O)N1CC2(CN(Cc3nccs3)C2)c2c(n(C)c3cc(OC)ccc23)[C@@H]1CO	12	9	3.3
COc1ccc2c3c(n(C)c2c1)[C@H](CO)N(Cc1ccc(Cl)cc1)CC31CCN(C(=O)NC(C)C)CC1	?	/	/
CN(C)Cc1cn(CC[C@H]2CC[C@H](NS(=O)(=O)c3ccc(-c4ccccc4)cc3)[C@@H](CO)O2)nn1	-1	8	-9.1
C[C@H]1CN([C@@H](C)CO)C(=O)c2cccc(NS(=O)(=O)c3ccc(Cl)cc3)c2O[C@@H]1CN(C)C(=O)Nc1ccc2c(c1)OCO2	-2	-1	-1.9
N#C[C@H]1[C@@H](c2ccc(C3=CCCCC3)cc2)[C@@H](CO)N1C(=O)Nc1ccccc1F	4	-1	5.4
C/C=C/c1ccc([C@H]2[C@@H](CO)N(C(=O)c3ccccc3)C23CN(C(C)=O)C3)cc1	10	7	2.7
C[C@H]1CN([C@@H](C)CO)C(=O)c2cc(NC(=O)Cc3cn(C)c4ccccc34)ccc2O[C@H]1CN(C)C(=O)Nc1ccc(C(F)(F)F)cc1	0	0	-0.4
CO[C@H]1CN(C)C(=O)c2cc(NS(=O)(=O)c3cccc(F)c3)ccc2OC[C@H](C)N(Cc2cc(F)ccc2F)C[C@@H]1C	?	/	/
C/C=C/c1ccc([C@H]2[C@@H](CO)N(C(=O)c3cnccn3)C23CN(C(C)=O)C3)cc1	4	4	0.4
COc1ccc(S(=O)(=O)Nc2ccc3c(c2)C(=O)N([C@@H](C)CO)C[C@@H](C)[C@@H](CN(C)C(=O)Nc2cccc4ccccc24)OCCCC[C@H](C)O3)cc1	0	-4	3.6
COc1ccc(S(=O)(=O)Nc2ccc3c(c2)[C@@H]2C[C@@H](CC(=O)N(C)C)O[C@@H](CO)[C@@H]2O3)cc1	0	6	-6.1
CO[C@H]1CC[C@@H]2CCN(C)C(=O)C[C@@H](c3ccccc3)CN(C)C(=O)c3cc(C#N)ccc3OC[C@@H]1O2	-2	-2	-0.9
O=C(C[C@@H]1CC[C@H]2[C@@H](COC[C@@H](O)CN2Cc2cc(F)ccc2F)O1)N[C@H]1CCN(Cc2ccccc2)C1	?	/	/
O=C(C[C@@H]1C=C[C@H](NS(=O)(=O)c2ccc(F)cc2)[C@@H](CO)O1)NCc1ccncn1	5	0	5.1
COCC(=O)Nc1ccc2c(c1)C(=O)N(C)[C@@H]1CC[C@@H](CC(=O)O)O[C@H]1CO2	-2	0	-1.6
CCCNC(=O)Nc1ccc2c(c1)OC[C@@H](C)N(CCC(F)(F)F)C[C@H](C)[C@H](OC)CN(C)C2=O	1	-1	2.2
O=C(C[C@@H]1C[C@@H]2c3cc(NC(=O)Nc4ccccc4F)ccc3O[C@@H]2[C@H](CO)O1)NCc1ccccn1	10	4	5.5
C[C@@H]1CN([C@@H](C)CO)C(=O)c2cc(NS(=O)(=O)c3cn(C)cn3)ccc2O[C@@H](C)CCCCO[C@@H]1CN(C)S(=O)(=O)c1ccc(Cl)cc1	2	-8	9.4
COCC#Cc1ccc([C@@H]2[C@@H](CO)N3CCCCN(S(=O)(=O)c4ccc(OC)cc4)C[C@H]23)cc1	-1	2	-3.1
O=C(C[C@@H]1CC[C@@H](NS(=O)(=O)c2ccccc2)[C@H](CO)O1)NCc1ccc(Cl)c(Cl)c1	0	3	-3.0
O=S(=O)(c1cccc(F)c1)N1CC[C@@H]2[C@H]1c1cc(Br)ccc1N[C@@H]2CO	-10	-6	-3.6
O=C(NCc1ccccc1Cl)[C@@H]1[C@@H](CO)[C@@H]2Cn3c(cccc3=O)[C@@H]2N1C(=O)C1CCCC1	4	1	3.3
COCC(=O)Nc1ccc2c(c1)C(=O)N(C)C[C@H](OC)[C@H](C)CN(Cc1cccc(F)c1)[C@@H](C)CO2	3	0	3.3
CC(C)NC(=O)NCC[C@H]1CC[C@H](NS(=O)(=O)c2ccc(Oc3ccccc3)cc2)[C@@H](CO)O1	-7	-13	6.4
CCC(=O)N1CC[C@@H]2[C@H]1c1cc(-c3ccc(C(=O)N(C)C)cc3)ccc1N[C@@H]2CO	1	-1	2.1
COc1ccc2c3c([nH]c2c1)[C@@H](CO)N(Cc1cccnc1)CC31CN(C(=O)CN(C)C)C1	11	9	1.2
COc1ccccc1C(=O)N1C[C@H]2[C@@H](c3ccccc31)[C@@H](CO)N2C(=O)C1CCOCC1	-2	-3	1.3
CC[C@@H]1C/C=C\C[C@@H](c2ccc(OC)cc2OC)NC(=O)[C@@H](C)CC(=O)N1	-6	-4	-2.4
C/C=C/c1ccc([C@H]2[C@H]3CN(C(=O)Nc4ccc(F)cc4)CCCCN3[C@H]2CO)cc1	5	2	2.4
O=C(C[C@H]1C[C@@H]2c3cc(NC(=O)Cc4ccncc4)ccc3O[C@@H]2[C@H](CO)O1)NCc1ccccn1	3	3	-0.3
CC(=O)N1[C@@H]2c3ccc(-c4cccc(F)c4)c(=O)n3C[C@@H]2[C@@H](CO)[C@@H]1C(=O)NCC1CC1	0	-3	3.0
COCC(=O)N1[C@H](CO)[C@@H](c2ccc(C#Cc3ccccc3F)cc2)[C@@H]1C#N	1	-2	3.1
O=C(C[C@@H]1CC[C@H]2[C@@H](COC[C@@H](O)CN2C(=O)c2ccncc2)O1)NCc1cc(F)cc(F)c1	2	-2	4.7
CN(C)CC(=O)N1C[C@@H]2N[C@H](C1)C2c1ccc(/C=C/c2ccccc2)cc1 (stereo not given in full)	-5&3	10&20	-16&-17
CN(C)CC(=O)N1CC[C@@H]2[C@@H](CO)N(C)c3ccc(Br)cc3[C@@H]21	10	1	8.8
CCCNC(=O)N1[C@H](CO)[C@H](c2ccccc2)[C@H]1CNC(=O)c1ccccc1	-1	-8	6.6
COc1ccc([C@H]2CC=CC[C@H](C)Oc3ccccc3C(=O)N(C)[C@H](C(C)C)C(=O)N2)c(OC)c1 (mixture of isomers)	-4	-1	-3.0
Cc1cc(C(=O)Nc2ccc3c(c2)C(=O)N(C)[C@@H]2CC[C@H](CC(=O)N[C@@H](C)c4ccccc4)O[C@H]2CO3)no1	4	-4	7.9
O=C(NC1CCC1)[C@@H]1[C@@H](CO)[C@@H]2Cn3c(ccc(-c4ccncc4)c3=O)[C@H]1N2Cc1cocn1	2	-4	5.0
C[C@H]1CC=CC[C@@H](c2ccc3c(c2)OCO3)NC(=O)[C@H](Cc2ccccc2)N(C)C(=O)c2ccccc2O1 (mixture of isomers)	-2	-8	5.1
C[C@H]1CN([C@@H](C)CO)C(=O)CCCn2nncc2CO[C@@H]1CN(C)C	0	-4	4.4
CCCN(C)C[C@@H]1Oc2cc(C#CC3CCCCC3)ccc2S(=O)(=O)N([C@H](C)CO)C[C@H]1C	-4	-4	-0.4
COc1ccc(S(=O)(=O)N2CC[C@@H]3[C@H](CO)Nc4ccc(-c5cccc(C#N)c5)cc4[C@@H]32)cc1	?	/	/
COCC(=O)N(C[C@H]1[C@H](c2ccccc2)[C@H](CO)N1C(=O)NC(C)C)C(C)C	3	3	0.7
CCS(=O)(=O)N1CC2(C1)[C@@H](c1ccccc1)[C@H](CO)N2C(=O)C1CC1	5	3	1.9
CC(=O)N1CCCCN2[C@H](CO)[C@H](c3ccc(-c4ccccc4)cc3)[C@H]2C1	10	9	1.0
C[C@H](CO)N1C[C@H](C)[C@@H](CN(C)C)OCc2ccccc2-c2c(n(C)c3ccccc23)C1=O	3	-3	6.1
COc1ccccc1C#Cc1ccc2c(c1)O[C@@H](CN(C)Cc1ccncc1)[C@H](C)CN([C@H](C)CO)S2(=O)=O	-3	-3	0.3
COCC(=O)N1CC2(C1)CN(C(=O)Nc1ccccc1F)[C@@H](CO)c1c2c2ccc(OC)cc2n1C	6	-5	11
C[C@@H]1CCCCO[C@H](CN(C)Cc2ccc(C(F)(F)F)cc2)[C@H](C)CN([C@@H](C)CO)C(=O)c2cc(NC(=O)Nc3cccc4ccccc34)ccc2O1	1	0	0.8
CC(C)NC(=O)N1C[C@@H]2[C@H](c3ccccc31)[C@H](CO)N2Cc1ccccc1	-1	0	-1.2
CCCNC(=O)N1CC2(C1)CN(Cc1cccc(F)c1)[C@H](CO)c1[nH]c3cc(OC)ccc3c12	2	23	-21
COc1ccc(C#Cc2ccc([C@@H]3[C@@H](CO)N4C(=O)CN(C(=O)Nc5ccccc5F)C[C@H]34)cc2)cc1	8	13	-5.0
CS(=O)(=O)N1CCCCN2[C@@H](CO)[C@H](c3ccc(-c4cccc(C#N)c4)cc3)[C@@H]2C1	8	8	-0.1
COc1ccccc1CNC(=O)C[C@H]1CC[C@H]2[C@H](COc3ccc(NC(=O)Nc4ccc(F)c(F)c4)cc3C(=O)N2C)O1	-3	-7	3.6
C[C@H](CO)N1C[C@H](C)[C@@H](CN(C)Cc2ccc3c(c2)OCO3)Oc2c(NC(=O)c3ccncc3)cccc2C1=O	-4	-2	-2.4
Cc1ccc(S(=O)(=O)N2C[C@@H](O)COC[C@@H]3O[C@H](CC(=O)NCc4ccc5c(c4)OCO5)CC[C@H]32)cc1	4	1	2.2
CN1C(=O)c2cc(NC(=O)c3cscn3)ccc2OC[C@H]2O[C@H](CC(=O)NCC3CC3)CC[C@@H]21	-1	0	-1.1
C[C@H](CO)N1C[C@H](C)[C@H](CN(C)S(=O)(=O)c2ccccc2F)OCc2cnnn2CCCC1=O	7	7	0.7

7 compounds from above with just DUX4 txn inh difference:
compound	DUX4 txn inh difference
COCC(=O)N1CC2(C1)CN(C(=O)Nc1ccccc1F)[C@@H](CO)c1c2c2ccc(OC)cc2n1C	-5
C[C@@H]1CCCCO[C@H](CN(C)Cc2ccc(C(F)(F)F)cc2)[C@H](C)CN([C@@H](C)CO)C(=O)c2cc(NC(=O)Nc3cccc4ccccc34)ccc2O1	0
CC(C)NC(=O)N1C[C@@H]2[C@H](c3ccccc31)[C@H](CO)N2Cc1ccccc1	0
CCCNC(=O)N1CC2(C1)CN(Cc1cccc(F)c1)[C@H](CO)c1[nH]c3cc(OC)ccc3c12	23
COc1ccc(C#Cc2ccc([C@@H]3[C@@H](CO)N4C(=O)CN(C(=O)Nc5ccccc5F)C[C@H]34)cc2)cc1	13
CS(=O)(=O)N1CCCCN2[C@@H](CO)[C@H](c3ccc(-c4cccc(C#N)c4)cc3)[C@@H]2C1	8
COc1ccccc1CNC(=O)C[C@H]1CC[C@H]2[C@H](COc3ccc(NC(=O)Nc4ccc(F)c(F)c4)cc3C(=O)N2C)O1	-7

Continuation.
SMILES	DUX4 txn inh	DUX4 txn inh difference	DUX4 txn inh control
Cc1ccc(S(=O)(=O)Nc2ccc3c(c2)C(=O)N([C@H](C)CO)C[C@H](C)[C@@H](CN(C)Cc2ccc(C(F)(F)F)cc2)O3)cc1	2	3	-1.5
O=C(Nc1ccccc1F)N1CC(=O)N2[C@H](CO)[C@H](c3ccc(C#CC4CC4)cc3)[C@@H]2C1	1	-8	9.2
CCCC(=O)N1CC2(C1)CN(C(=O)C1CCCCC1)[C@@H](CO)c1[nH]c3cc(OC)ccc3c12	5	-8	13
C[C@H]1CN([C@@H](C)CO)C(=O)CCCn2cc(nn2)CO[C@@H]1CN(C)C(=O)CCCN(C)C	-2	-10	7.7
